# Compound activity deposited in PubChem BioAssay by several laboratories.
# Sa RN4220 lethal = S. aureus RN4220 growth inhibition. OD600, 16 h. inhibition, % (concentration not given with the values). 330,000 tested, 0.33% active. AID 1259311;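 active = z-score of -3 or lower and OD600 up to 0.18 on both plates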;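 note: plate controls were untreated cells for no effect and reference antibiotic for full effect; stock transfer was 100 nL into about 80 µL; one replicate is shown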
# Bead autofluor = compound fluorescence in toxin protease inhibitor counterscreen; compound autofluorescence counterscreen, microsphere flow cytometry; active compounds read high; fluorescence intensity (test concentration not listed); 360,000 tested, 3.1% active; AID 624483;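 active = at least 3 SD above the mean of all compounds, about 16000 in these data; inconclusive = too few beads counted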;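 note: 100 nL of 1 mM stock went into each well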
# ugtP null kill = growth inhibition of S. aureus ugtP deletion strain; 330,000 tested, 0.54% active; growth inhibition, % (no concentration beside the values); AID 1259309; S. aureus RN4220 ugtP deletion, OD600 growth, 16 h; some inactives read as strong as hits;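 active = z-score under -3 and OD600 up to 0.15 on both plates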;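 note: plate controls were untreated wells for no effect and antibiotic for full effect; wells of about 80 µL received 100 nL stock; the first replicate is given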
# BJeLR lethal = BJeLR cell viability loss. inhibition, % (concentration not given with the values). BJeLR (HRASV12) viability, CellTiter-Glo ATP luminescence, 48 h; reference of the scale not given here. 300,000 tested, 0.17% active;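 active = replicate mean above 50%; inconclusive = above 50% but judged a plate artefact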;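 note: 50 nL library stock added to about 25 µL; numbers are from one replicate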
# Mtb hypoxia rep = reduces hypoxia-regulated biosensor signal in M. tuberculosis; AID 1159583; M. tuberculosis hypoxia-regulated fluorescent reporter, fluorescence; fluorescence inhibition, % (concentration not given with the values); 300,000 tested, 0.1% active;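 active = 35 to 45% if threefold the growth effect, above 45% if 1.5-fold the growth effect; inactive = the rest, general growth blockers included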;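 note: wells of about 50 µL received 100 nL stock; 0% = vehicle wells and 100% = reference inhibitor wells; whole bacteria with a GFP reporter of the hypoxia response; strong numbers were not always called active; many hits fall short of the cut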
# PrP 5UTR inh = inhibition of PrP 5' UTR reporter expression | cell-based PrP 5' UTR mRNA reporter, plate reader | inhibition, % (concentration not given with the values) | 340,000 tested, 0.35% active | AID 488862;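 active = every replicate at 50% or more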;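 note: 0 = median of the neutral control wells; tested in H4 reporter cells; numbers are from one replicate; inactives centre near -14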
# Mtb hypoxia rep growth = recorded beside Mtb hypoxia rep, whose call it bears; growth inhibition, %; measured here: M. tuberculosis growth (absorbance);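 0% = vehicle and 100% = reference antibiotic; read after six days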
# The depositor's hits bear a star; u = inconclusive; x = not tested or not shown.
1: O=C(NC(=S)NNC(=O)c1cnccn1)c1ccc(Cl)cc1
2: Cc1nnc(NC(=O)c2nn(CC(C)C)c(=O)c3ccccc23)s1
3: Cc1ccccc1NC(=O)CC1(c2ccc(N(C)C)cc2)C(=O)c2ccccc2C1=O
4: COc1ccc(C)cc1-n1nnnc1SCC(=O)NC1CCS(=O)(=O)C1 (stereo not given)
5: CC(CCCC(C)(C)O)NCCO (stereo not given)
6: Cc1csc(NC(=O)c2c(-c3ccccc3)noc2C)n1
7: O=C(CCN1C(=O)/C(=C\c2ccccc2Cl)SC1=S)Nc1cccnc1
8: CCN(CC)c1ccc2c(c1)OC(N)=C(C#N)C2c1cccnc1 (stereo not given)
9: CCOc1ccc(Cc2c(Cl)nc(SC)nc2N(C)C)cc1
10: COc1cc(-c2nc3n(n2)C(c2cccc(OC)c2OC)C2=C(CCCC2=O)N3)cc(OC)c1OC (stereo not given)
screen / no.	1	2	3	4	5	6	7	8	9	10
Sa RN4220 lethal	16	4.9	17	-2.7	1.4	4.4	2.5	7.6	-7.2	9.7
Bead autofluor	6163	4407	3829	4464	10604	3981	5000	5581	2320	5816
ugtP null kill	-1	-2	-8	-4	1	-3	4	5	93*	-10
BJeLR lethal	33	3	-14	x	1	-7	-10	39	15	-12
Mtb hypoxia rep	35*	-5	9	-10	3	10	7	-8	-2	0
Mtb hypoxia rep growth	16*	4	12	-1	2	0	2	12	3	5
PrP 5UTR inh	1	-25	-11	-3	-76	-10	-9	22	-19	-17

# Molecules from the list above that contain a halogen (three):
1: O=C(NC(=S)NNC(=O)c1cnccn1)c1ccc(Cl)cc1
7: O=C(CCN1C(=O)/C(=C\c2ccccc2Cl)SC1=S)Nc1cccnc1
9: CCOc1ccc(Cc2c(Cl)nc(SC)nc2N(C)C)cc1
screen / no.	1	7	9
Sa RN4220 lethal	16	2.5	-7.2
Bead autofluor	6163	5000	2320
ugtP null kill	-1	4	93*
BJeLR lethal	33	-10	15
Mtb hypoxia rep	35*	7	-2
Mtb hypoxia rep growth	16*	2	3
PrP 5UTR inh	1	-9	-19

# Continued.
11: Nc1ccc(OCc2ccco2)cc1
12: O=C(CN1CCN(Cc2ccccc2)CC1)NN=Cc1ccco1
13: Cc1ccc(OCC(=O)Sc2ccc(C)cc2)cc1
14: O=C(Nc1ccc(C(O)(C(F)(F)F)C(F)(F)F)cc1)c1ccc(Cl)c([N+](=O)[O-])c1
15: Cc1nn(-c2ccccc2)c(C)c1NC(=O)COC(=O)c1ccc(S(=O)(=O)C(F)F)cc1
16: CC(C)c1onc(C(=O)NCc2ccccn2)c1[N+](=O)[O-]
17: CCOc1ccc(NC(=O)C2CSC(c3ccncc3)=N2)cc1 (stereo not given)
18: CC[C@@H](CC1CCCCC1)C(=O)N(Cc1ccccc1)c1ccccc1
19: COc1cc(C(=O)N(CCc2ccccc2)C2CC3CCC(C2)N3C)cc(OC)c1OC (stereo not given)
20: CSCCC(NC(=O)c1cncc(Br)c1)C(=O)O (stereo not given)
screen / no.	11	12	13	14	15	16	17	18	19	20
Sa RN4220 lethal	x	2.0	-1.1	-6.1	1.4	1.7	-2.6	-11	-4.3	-0.3
Bead autofluor	4002	x	6046	2026	5463	2079	5269	3702	5795	20225*
ugtP null kill	x	4	12	-41	0	5	9	29	1	0
BJeLR lethal	1	x	-6	-6	9	10	-14	x	2	-8
Mtb hypoxia rep	x	6	x	2	4	-2	1	9	x	-2
Mtb hypoxia rep growth	x	18	x	7	0	-2	0	0	x	-10
PrP 5UTR inh	-8	x	-30	-2	-27	-14	-18	-13	-20	-16

21: CCOC(=O)C1CCCN(C(=O)c2cc(-c3ccccc3)on2)C1 (stereo not given)
22: c1ccc(-c2onc(-c3ccco3)c2-c2ccc3[nH]ccc3c2)cc1
23: CN(CCC#N)C(=O)COC(=O)c1ccccc1C(=O)c1ccc(Cl)c([N+](=O)[O-])c1
24: O=C(CS(=O)(=O)c1ccccc1)NCc1ccco1
25: COc1ccccc1N1C(=O)NC(=O)/C(=C/c2ccc3c4c(cccc24)CC3)C1=O
26: CCCN(CCC)S(=O)(=O)c1ccc(N2CCCC2=O)c([N+](=O)[O-])c1
27: Cc1cc(C)cc(NC(=O)C2(c3ccccc3)CC2(Cl)Cl)c1 (stereo not given)
28: CCCn1c(SCC(=O)/C(C#N)=C(\C)N)n[nH]c1=O
29: COc1ccccc1OCC(=O)N1CCNC1=O
30: O=C(NCCSC1CCCCC1)c1ccccc1
screen / no.	21	22	23	24	25	26	27	28	29	30
Sa RN4220 lethal	9.0	-31	2.7	11	2.9	2.4	-2.0	5.8	0.2	2.8
Bead autofluor	11268	4218	4213	4595	2483	8208	x	7466	5185	2555
ugtP null kill	1	85*	5	4	4	8	1	1	10	9
BJeLR lethal	12	-12	2	x	11	-12	6	-10	-3	-7
Mtb hypoxia rep	5	2	-2	14	6	13	4	2	0	-2
Mtb hypoxia rep growth	2	1	4	10	1	5	1	7	2	5
PrP 5UTR inh	-32	-18	-17	-10	1	-64	-6	-27	35	-65

31: CCN(CC)CCNC(=S)Nc1ccc2nc3n(c(=O)c2c1)CCCCC3
32: O=C(O)c1ccc(NC(CSCc2cccc(F)c2)C(=O)O)c([N+](=O)[O-])c1 (stereo not given)
33: CC1CN(CN2C(=O)c3ccccc3C2=O)CC(C)O1 (stereo not given)
34: O=C(NC(=O)N1CCCCCC1)c1ccccc1
35: Cc1cc(CNC(=O)C2(C(F)(F)F)CC(CCCO)CCCO2)nn1C (stereo not given)
36: COc1ccc(N2C(=O)CCC(C(=O)O)C2c2ccc(OC)c(OC)c2)cc1 (stereo not given)
37: CCOc1cc(/C=C(/C#N)c2ccc(F)cc2)ccc1OCc1ccc(C(=O)O)o1
38: COc1cc(C=NNC(=O)NC2CCCCC2)ccc1O
39: CNC[C@H]1Oc2ccc(NC(=O)Nc3ccccc3)cc2CC(=O)N([C@H](C)CO)C[C@H]1C
40: CCC(=O)Nc1cc(C(=O)O)ccc1Sc1ccccc1
screen / no.	31	32	33	34	35	36	37	38	39	40
Sa RN4220 lethal	2.8	4.7	-0.5	4.1	4.7	1.9	5.3	0.7	-14	2.6
Bead autofluor	4231	10909	9824	u	3969	6270	3976	x	3604	4368
ugtP null kill	0	-4	8	6	1	5	-4	-12	3	5
BJeLR lethal	x	2	-2	-6	0	1	0	x	x	-3
Mtb hypoxia rep	6	22	7	-4	-3	5	x	-9	7	1
Mtb hypoxia rep growth	2	7	6	-10	6	7	x	4	2	8
PrP 5UTR inh	-28	10	-12	-6	-23	-13	7	x	-5	-21

41: S=c1[nH]nc(-c2cccnc2)n1/N=C/c1cccs1
42: CC1=C(C(=O)OC(C)C)C(c2cccc([N+](=O)[O-])c2)n2c(cc(=O)[nH]c2=S)N1 (stereo not given)
43: CCc1cccc(CC)c1NC(=O)CN1CCN(S(=O)(=O)c2ccccc2)CC1
44: CC(=O)Nc1ccccc1C(=O)C(=O)Nc1ccc(C(=O)NCC2CCCO2)cc1 (stereo not given)
45: CCOC(=O)N1CCC(NC(=O)c2ccc(CS(=O)(=O)c3ccc(OC)cc3)o2)CC1
46: COCC1CCN(Cc2cn[nH]c2-c2cc3ccccc3o2)C1 (stereo not given)
47: CCc1[nH]c(=O)c(C#N)c2c1CSC(C)(C)C2
48: COc1ccc(N2CCN(C(=O)CN(c3cccc(OC)c3)S(=O)(=O)c3ccccc3)CC2)cc1
49: CCn1cnc2c1c(=O)n(CC(=O)Nc1ccc(C(N)=O)cc1)c(=O)n2Cc1ccccc1
50: O=C(N/N=C/c1cccc(O)c1)c1ccc(COc2cccc3cccnc23)cc1
screen / no.	41	42	43	44	45	46	47	48	49	50
Sa RN4220 lethal	x	1.6	2.9	-1.8	1.5	-6.0	4.5	2.4	0.7	x
Bead autofluor	9018	11117	5951	16035	4929	4208	23170*	6017	4065	4510
ugtP null kill	x	0	10	-3	-15	-5	4	3	5	x
BJeLR lethal	2	1	-1	-1	2	5	11	3	8	4
Mtb hypoxia rep	x	-6	3	4	x	-10	12	3	-5	x
Mtb hypoxia rep growth	x	-4	-8	5	x	4	2	4	10	x
PrP 5UTR inh	-24	-57	-13	-28	2	-8	-7	-8	-26	-16

51: O=C(COC(=O)c1ccccc1)NCc1ccco1
52: Cc1onc(-c2ccccc2Cl)c1C(=O)N1CC(C)OC(C)C1 (stereo not given)
53: COc1ccc(N2C(=O)C(=O)N(c3ccc(OC)cc3)P2(=O)N(CCCl)CCCl)cc1
54: COc1ccccc1C(=O)NCC(C)(C)CN=C1NS(=O)(=O)c2ccccc21
55: CCCn1c(SCc2ccc(C(=O)OC)o2)nc2ccccc2c1=O
56: COc1cc(C(=O)NCc2ccc3c(c2)cc(C)n3C)cc(OC)c1OC
57: O=C(COC(=O)c1cnccn1)c1ccccc1
58: COc1ccc(S(=O)(=O)N[C@@H](CC(C)C)C(=O)O)cc1
59: CC(=O)Nc1ccc(S(=O)(=O)NNC(=O)COc2ccc(C(C)(C)C)cc2)cc1
60: CCCCCCCCC(=O)O
screen / no.	51	52	53	54	55	56	57	58	59	60
Sa RN4220 lethal	3.2	5.1	4.4	5.1	1.1	1.2	7.6	2.2	2.7	1.0
Bead autofluor	2568	23411*	3138	5221	3663	3716	4112	10424	4806	4011
ugtP null kill	-4	2	8	5	9	3	6	3	0	-1
BJeLR lethal	-3	-4	x	-8	2	1	4	6	1	-1
Mtb hypoxia rep	-3	11	8	20	9	3	4	2	x	x
Mtb hypoxia rep growth	-5	12	2	7	-2	8	5	-5	x	x
PrP 5UTR inh	-86	0	-18	-3	-20	3	-6	-37	-14	x

61: O=C(Nc1nc(-c2ccc3c(c2)OCO3)cs1)C1COc2ccccc2O1 (stereo not given)
62: CC(CC(=O)O)C(=O)c1ccc(Cl)c([N+](=O)[O-])c1 (stereo not given)
63: Cc1cc(C)c(-c2csc(NC(=O)CCCc3nc4ccccc4c(=O)[nH]3)n2)c(C)c1
64: O=C(Cn1c(=O)oc2ccccc21)N1CCN(c2ccccc2)CC1
65: COc1ccc2nc(SCC(=O)NC3(C#N)CCCCC3)[nH]c2c1
66: COC(=O)c1ccc([C@H]2C=C(C(=O)O)O[C@@H](OCc3ccc(CO)cc3)C2)cc1
67: COc1cc(C(=O)Nc2ccc3c(c2)N(C(=O)CCN(C)C)c2ccccc2CC3)cc(OC)c1OC
68: O=C(NCCc1ccccc1)C1CCCN(C(=O)NC2CCCCC2)C1 (stereo not given)
69: O=C(CN(Cc1ccccc1)S(=O)(=O)c1ccccc1)NN=Cc1ccccc1[N+](=O)[O-]
70: O=C(Cn1c(=O)oc2ccccc21)N1CCCCC1
screen / no.	61	62	63	64	65	66	67	68	69	70
Sa RN4220 lethal	-14	7.7	-1.4	2.4	2.1	x	-0.2	2.2	1.4	-3.7
Bead autofluor	4677	4650	x	3651	6249	2890	4824	22227*	x	3581
ugtP null kill	5	0	2	15	4	x	3	3	-15	1
BJeLR lethal	2	10	1	4	13	17	1	1	x	-9
Mtb hypoxia rep	5	2	-4	9	1	x	-1	6	12	x
Mtb hypoxia rep growth	13	11	27	1	0	x	-3	9	2	x
PrP 5UTR inh	-3	3	-8	-9	-26	-24	-20	15	x	-17

71: COCCCn1c2nc3ccccc3nc2c2c(=O)n(Cc3ccccc3Cl)cnc21
72: COc1ccc(N2CC(C(=O)N[C@H](C(=O)NC(C)c3ccccc3)C(C)C)CC2=O)cc1 (stereo not given in full)
73: CCO[C@@H]1OC(C(=O)NCc2ccccc2)=C[C@H](c2ccccc2)[C@H]1CCCO
74: Cc1cccc(NC(=O)Cn2c(=O)oc3ccccc32)c1
75: CCCCCCCCCS(=O)(=O)NN=Cc1cccc([N+](=O)[O-])c1
76: O=C(NC1CC(=O)c2sccc21)c1ccc(Cl)cc1Cl (stereo not given)
77: Cc1ccccc1NS(=O)(=O)c1cc(OCC(N)=O)c(C)cc1Cl
screen / no.	71	72	73	74	75	76	77
Sa RN4220 lethal	3.4	2.0	x	-0.5	10	6.2	-7.5
Bead autofluor	x	6461	3013	4344	x	4148	4294
ugtP null kill	1	2	x	-4	-36	11	-15
BJeLR lethal	6	-5	-12	-4	x	-10	4
Mtb hypoxia rep	-4	-1	x	x	3	3	-4
Mtb hypoxia rep growth	0	-2	x	x	1	7	7
PrP 5UTR inh	x	-2	36	-7	x	-36	-26
